Mtb MbtI inh = inhibitors of Mycobacterium tuberculosis siderophore enzyme MbtI | AID 493033 | purified MbtI enzyme, fluorescence intensity read-out | 100,000 compounds, 0.89% hits | inhibition, %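 (about 17 µg/mL by stock and volumes)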;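 active = above 50% in both replicates, above 80% if mildly self-fluorescent; inactive = the rest, strongly fluorescent compounds included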;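 note: 0% = mean of negative and 100% = mean of positive controls; one replicate is shown; some compounds called inactive have numbers as strong as hits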
Target sequence (P9WFX0 whole entry, looked up): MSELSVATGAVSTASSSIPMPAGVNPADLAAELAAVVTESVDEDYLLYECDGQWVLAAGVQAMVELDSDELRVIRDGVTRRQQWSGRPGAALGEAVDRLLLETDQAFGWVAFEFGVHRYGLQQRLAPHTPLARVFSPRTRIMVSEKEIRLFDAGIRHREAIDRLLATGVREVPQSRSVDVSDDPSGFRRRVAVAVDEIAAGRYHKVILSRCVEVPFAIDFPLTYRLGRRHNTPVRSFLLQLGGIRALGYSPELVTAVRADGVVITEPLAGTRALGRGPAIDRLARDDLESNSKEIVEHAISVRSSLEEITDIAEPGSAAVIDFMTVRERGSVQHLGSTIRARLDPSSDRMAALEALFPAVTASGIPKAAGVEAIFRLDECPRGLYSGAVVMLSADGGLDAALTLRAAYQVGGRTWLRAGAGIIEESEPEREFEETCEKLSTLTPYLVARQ
PV pol inh = inhibitors of poliovirus RNA polymerase binding and polymerization | P03300 | poliovirus polymerase elongation, fluorescence polarization; active compounds read low | % elongation, % (compound at 16.7 µg/mL) | 150,000 compounds, 0.66% hits | AID 588519; in the data active = % elongation below about 90%; note: some results filed as inactive read as strong as hits
MenB inh = inhibitors of Mycobacterium tuberculosis MenB enzyme; MenB enzyme assay, absorbance read-out; some hits fall short of the stated cut; inhibition, %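 (about 12 µg/mL by stock and volumes)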; 100,000 compounds, 0.43% hits; AID 540299;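 active = mean of two replicates above 30%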;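 note: 0% = no compound and 100% = wells with inactive enzyme; the first replicate is given; strong numbers were not always called active; inactives centre near -10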
Target sequence (P9WNP5 whole entry, looked up): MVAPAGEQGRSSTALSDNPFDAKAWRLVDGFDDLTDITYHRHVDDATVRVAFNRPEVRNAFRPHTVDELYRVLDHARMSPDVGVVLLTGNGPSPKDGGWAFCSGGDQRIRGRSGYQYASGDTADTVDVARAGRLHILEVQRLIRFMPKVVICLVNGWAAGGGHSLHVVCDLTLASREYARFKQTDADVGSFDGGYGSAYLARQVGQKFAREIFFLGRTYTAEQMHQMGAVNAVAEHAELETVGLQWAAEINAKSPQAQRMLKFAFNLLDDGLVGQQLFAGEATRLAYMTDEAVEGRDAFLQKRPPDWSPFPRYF
PV pol inh intensity = further read-out of PV pol inh, marked with its call; % elongation; measured here: total intensity read-out; formula for this scale not given here;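 total fluorescence in place of polarization; lower means less elongation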
Starred values were filed as active, the others as inactive; x = no result given.

Values run as follows: Mtb MbtI inh, PV pol inh, PV pol inh intensity, MenB inh
CN1c2ccccc2N(C)C1c1cccn1C
    18, 102, 96, 8
CCN(CC(=O)Nc1ccc(S(=O)(=O)N(C)C)cc1)CC(=O)Nc1ccccc1C(F)(F)F
    -5, 99, 101, -40
Cc1ccc(-n2ccc(=O)c(C(=O)Nc3ccc(S(N)(=O)=O)cc3)n2)cc1
    -14, 101, 102, 3
COC(=O)c1c(C)n(Cc2ccccc2)c2ccc(O)cc12
    x, 104, 112, -15
COC(=O)c1ccc(CSc2nc(CN3CCOCC3)nc3sc4c(c23)CCCC4)o1
    -5, 96, 103, -14
Cc1ccc2nc(SCC(=O)N3CCc4ccccc43)[nH]c2c1
    -5, 101, 103, x
O=C(C1Cc2ccccc2CN1S(=O)(=O)c1cccs1)N1CCCCC1 (stereo not given)
    x, 100, 89, -24
CCc1ccc(NC(=O)CSc2nc3nccnc3c(=O)n2CCC(C)C)cc1
    -10, 102, 105, -10
CCOc1ccc2[nH]c(=S)sc2c1
    81*, 104, 102, -115
CNC(=O)COc1ccccc1O
    -1, 102, 102, x
COCCN(Cc1ccco1)C(=O)c1noc2c1COc1ccc(C)cc1-2
    -7, 105, 107, -24
Cc1ccc(S(=O)(=O)NCC(=O)OCc2cc(Cl)cc3c2OCOC3)cc1
    4, 100, 102, -17
Cc1ccc(-n2c(C)cc(/C=C3/C(=O)N(C4CCCCC4)C(=S)N3C)c2C)cc1
    14, 98, 99, -16
Cc1noc2ncnc(SCc3ccc(Cl)cc3)c12
    -5, 100, 101, -7
Cc1nn(-c2ccccc2)c2sc(C(=O)Nc3ccccc3)cc12
    -1, 101, 94, x
CC(C)(C)NC(=O)c1ccc(C(C)(C)C)cc1
    0, 103, 106, 8
CC(C)c1cc(CN2CCN(c3ccccc3)CC2)c(O)c(CN2CCN(c3ccccc3)CC2)c1
    4, 103, 107, -23
CN(C(=O)COC(=O)c1cccnc1N1CCCC1)c1c(N)n(Cc2ccccc2)c(=O)[nH]c1=O
    9, 111, 113, -27
CN(C(=O)COC(=O)c1cccc2ccccc12)C1CCS(=O)(=O)C1 (stereo not given)
    -2, 99, 98, -23
COc1cccc(CN(CCCN2CCOCC2)C(=O)c2cc3sccc3n2Cc2ccccc2)c1
    -3, 100, 101, -32
CC(C)CCNC(=O)C1CCCN(S(=O)(=O)N2CCC3(CC2)OCCO3)C1 (stereo not given)
    -24, 101, 102, -3
Cc1cc(C(=O)COC(=O)c2ccc(Cl)s2)c(C)n1-c1ncn[nH]1
    -7, 103, 110, -36
Cc1ccc(NC(=O)CC2CCC2)cc1C
    x, 107, 109, -4
Cc1ccc(CNc2ccc3c(c2)ncn3C(C)C)cc1
    117, 105, 106, -26
Cc1ccc2occ(CN(C)CCc3ccccn3)c(=O)c2c1
    13, 100, 104, 8
O=C(CSc1ccc2ccccc2c1)NCCc1ccc(O)c(O)c1
    93*, 100, 101, x
CC(C)ON1C(=O)C2C3C=CC(O3)C2C1=O (stereo not given)
    -17, 101, 105, -8
CC(C)n1nc(CC(=O)O)c2ccccc2c1=O
    1, 104, 105, -9
COC(=O)c1c(COC(=O)C2=COCCO2)nc2ccccc2c1C
    8, 102, 108, -4
CCN(CC)c1nc(N2CCN(CCO)CC2)nc2ccccc12
    4, 100, 100, -24
CC1CCC(C(=O)NC(Cc2c[nH]c3ccccc23)C(=O)NC2CCCCC2C)CC1 (stereo not given)
    -3, 102, 103, -7
NC(=O)c1ccc(-c2ccc(/C=C3\C(=O)ON=C3c3ccccc3)o2)cc1
    86, 102, 102, -13
COc1cccc(C(=O)O/N=C(\N)Cc2ccc(OC)c(OC)c2)c1
    1, 103, 103, 12
CC(OC(=O)c1ccccc1NC(=O)c1ccco1)C(=O)N1CCN(C(=O)c2ccco2)CC1 (stereo not given)
    -34, 100, 106, -7
CCn1c(NCc2ccc3c(c2)OCO3)nc2ccccc21
    -2, 100, 103, x
N#CCC(=O)Nc1ccc(S(N)(=O)=O)cc1
    -7, 109, 111, -41
CN(Cc1ccccc1)C(=O)CSc1ccc(Br)cc1
    4, 100, 93, x
NC(=S)Nc1ccccc1
    x, 105, 109, -30
CSC1=C(C#N)C(=O)NC(c2c(Cl)cccc2Cl)S1 (stereo not given)
    7, 99, 97, 10
CCS(=O)(=O)Nc1ccc(C(=O)Nc2ccc3c(c2)OCCO3)cc1
    19, 101, 102, -2
Cc1c(C(=O)CSc2n[nH]c(=O)n2C2CC2)sc2ccc(Cl)cc12
    -4, 105, 103, 8
O=C(c1cccs1)N1CCSC1=S
    10, 98, 103, 2
CCC1C2CC3C4N(C)c5ccccc5C45CC(C2C5O)N3[C@@H]1O (stereo not given in full)
    4, 103, 101, -6
CC1CCCC(C)N1C(=O)CN1CCC(O)(c2ccccc2)CC1 (stereo not given)
    -6, 107, 101, -67
C=CCOC1(c2ccccc2)OC(=O)c2ccccc21 (stereo not given)
    -1, 100, 102, -19
Cc1cc(N2CCOCC2)nc2ccc(N)cc12
    115, 101, 103, -52
CCN1C(=O)/C(=C2/C=Cc3ccccc3N2CC)SC1=S
    -1, 100, 105, 0
CC(C)(Oc1ccc(Cl)cc1)C(=O)NCC1CCCO1 (stereo not given)
    x, 104, 105, -5
O=C(CSc1nc2ccccc2[nH]1)Nc1ccc(C(=O)O)cc1
    3, x, x, -17
CCc1ccc(NC(=O)C2CCCN(C(=O)c3cnn(-c4ccccc4)c3-n3cccc3)C2)cc1 (stereo not given)
    -13, 104, 103, -12
CCCCc1c(O)nc(SCCN(C)C)n(-c2ccccc2)c1=O
    11, 102, 105, 1
O=S(=O)(c1ccc(Sc2ccc(S(=O)(=O)N3CCCC3)cc2)cc1)N1CCCC1
    -2, 106, 102, 8
Cc1cc(CNC(=S)Nc2ccc(F)cc2F)nn1C
    8, 102, 99, -34
O=C1CC(Cc2ccccc2)C(=O)N1Cc1ccc2c(c1)OCO2 (stereo not given)
    -13, 102, 102, -25
Cc1ccc2nc3ccc(N4CCCCCCC4)nn3c(=O)c2c1
    -5, 104, 103, -28
COCCNC(=O)C1=CC(c2ccc(C)cc2)=NS(=O)(=O)N1C
    23, 100, 99, -24
O=C(NCc1cccs1)c1cccc(S(=O)(=O)N2CCCCC2)c1
    x, 99, 97, -9
CC(C)CNC(=O)c1cccc2ccccc12
    -8, 101, 103, -15
Cc1ccc(-n2c(SCC(=O)c3ccc(C#N)cc3)nc3ccccc32)cc1
    4, 105, 110, 5
CCOC(=O)C1CCCN(C(=O)CC)C1 (stereo not given)
    3, 98, 100, -19

The list continues:
Values run as follows: Mtb MbtI inh, PV pol inh, PV pol inh intensity, MenB inh
COc1ccccc1N/C=C(\C#N)c1nc2ccccc2[nH]1
    -20, 100, 104, -48
Oc1ccc(C2SCCS2)cc1
    -5, 99, 97, -31
COc1ccc(NC(=O)CCCc2nnc3n(C(C)C)c(=O)c4sccc4n23)cc1OC
    -15, 101, 103, -1
N#CC1(C#N)[C@@H]2c3ccccc3C=CN2[C@@H](C(=O)c2ccccc2)[C@@H]1c1cccs1
    x, 126, 167, -14
Cc1ccc(SCc2cc(=O)[nH]c(Nc3nc4ccccc4o3)n2)cc1
    12, 100, 102, -26
N=C(N=C(N)N)N1N=CCC1c1ccccc1 (stereo not given)
    x, 105, 102, -2
O=C(O)c1cccc(S(=O)(=O)N2CCN(c3ccccc3)CC2)c1
    -6, 96, 105, -1
Cc1cc(OC(=O)N2CCOCC2)cc(C)c1Cl
    -13, 101, 102, -19
CCCCCCNc1nc(Oc2ccccc2)nc(Oc2ccccc2)n1
    -1, 104, 101, -55
CCc1ccc(NC(=O)c2cc(C)[nH]n2)cc1
    8, 105, 99, 8
Oc1ccc(C2N=C(c3ccccc3)NC(c3ccccc3)=N2)cc1
    0, 96, 101, 1
O=C(NC1CCCC1)C(F)(F)C(F)(F)C(=O)NC1CCCC1
    -7, 102, 103, 1
O=C(c1cc(S(=O)(=O)N2CCCCC2)c[nH]1)N1CCCC1
    -9, 104, 103, -1
Cc1ccc2[nH]c3nc4ccccc4nc3c2c1
    12, 101, 102, -33
Cn1c(CCCCC(=O)O)nc2ccccc21
    -7, 101, 102, 2
O=C(CNc1cccc(C(F)(F)F)c1)N=Nc1c(O)[nH]c2ccccc12
    7, 104, 101, 15
CC(OC(=O)c1cc(=O)c2ccccc2[nH]1)C(=O)Nc1ccccc1F (stereo not given)
    -94, 101, 105, -19
Cc1n[nH]c(C)c1S(=O)(=O)N(C)C
    -3, 105, 110, -10
Cc1ccc(S(=O)(=O)N2C=Cc3ccccc3C2c2c[nH]c3ccccc23)c(C)c1 (stereo not given)
    3, 100, 94, -11
CCCC(c1nnnn1CC1CCCO1)N(Cc1cccs1)Cc1cc2ccc(C)c(C)c2[nH]c1=O (stereo not given)
    0, 105, 99, -52

Reformatted: results already given
CC1CCCC(C)N1C(=O)CN1CCC(O)(c2ccccc2)CC1 (stereo not given)
  Mtb MbtI inh: -6	PV pol inh: 107	PV pol inh intensity: 101	MenB inh: -67

C=CCOC1(c2ccccc2)OC(=O)c2ccccc21 (stereo not given)
  Mtb MbtI inh: -1	PV pol inh: 100	PV pol inh intensity: 102	MenB inh: -19

Cc1cc(N2CCOCC2)nc2ccc(N)cc12
  Mtb MbtI inh: 115	PV pol inh: 101	PV pol inh intensity: 103	MenB inh: -52

CCN1C(=O)/C(=C2/C=Cc3ccccc3N2CC)SC1=S
  Mtb MbtI inh: -1	PV pol inh: 100	PV pol inh intensity: 105	MenB inh: 0

Going on with the list:
Values run as follows: Mtb MbtI inh, PV pol inh, PV pol inh intensity, MenB inh
O=C(CO/N=C/c1ccccc1Cl)N1CCCCCC1
    -6, 107, 106, -20
CCNC(=O)c1ccc(CN2CCOCC2)cc1
    -14, 104, 102, -36
N#Cc1cccc(NC(=O)COC(=O)CCc2ccc(S(=O)(=O)N3CCOCC3)cc2)c1
    -4, 104, 108, 10
Cc1[nH]c2ccccc2c1SCC(=O)Nc1nccs1
    7, 99, 106, 6
COc1cccc(CNS(=O)(=O)c2cc(OC)ccc2OC)c1
    -3, 105, 106, 3
CCOc1ccc(-c2nnc(Nc3ccc(OC)cc3)c3ccccc23)cc1
    34, 101, 106, 1
CN(C)C1(CNCc2nc3ccccc3c(=O)[nH]2)CCCCC1
    19, 95, 94, -43
Cn1nc(-c2ccccc2)cc1NS(=O)(=O)c1ccc(C#N)cc1
    -1, 99, 99, 9
Cc1nnc(SCC(=O)NC(=O)c2cccn2C)n1Cc1ccccc1
    5, 106, 113, -31
CC(CCc1ccco1)NC(=O)Cn1ncc2c(Cl)cccc21 (stereo not given)
    18, 103, 100, -14
O=C(Cn1c(=O)c2cccn2c2ccccc21)NCc1ccccc1
    102, 104, 104, 9
C(=Nc1cnc2ccc3ccccc3c2c1)c1ccco1
    -2, 103, 98, x
Cn1cccc1C(=O)c1cccc(Br)c1
    5, 105, 105, -33
O=C1c2ccccc2-c2c1cccc2C(=O)N(CCO)CCO
    0, 101, 100, 0
CC1=CC=CC(=C(C2C(=O)N(C)C(=O)N(C)C2=O)C2C(=O)N(C)C(=O)N(C)C2=O)C1=O
    0, 101, 98, -34
COc1ccc(OCC(O)CNC(=O)Nc2ccc(OC(F)(F)F)cc2)cc1 (stereo not given)
    7, 103, 99, -20
COc1cc(/C=N/NC(N)=S)ccc1OC(=O)c1ccco1
    -18, 100, 98, -44
CC(=O)N(CCC(c1ccc(C)cc1)c1ccco1)Cc1cccs1 (stereo not given)
    34, 104, 105, -32
CC(=O)N1CCc2[nH]c3ccc(C)cc3c2C1
    x, 60, 179, -22
O=C(O)Cc1cn2ccsc2n1
    -6, 99, 99, x

Continued; it opens with the two that closed the last part.
Values run as follows: Mtb MbtI inh, PV pol inh, PV pol inh intensity, MenB inh
CC(=O)N1CCc2[nH]c3ccc(C)cc3c2C1
    x, 60, 179, -22
O=C(O)Cc1cn2ccsc2n1
    -6, 99, 99, x
Cc1nnc(C)c2c(C)n(C(C)c3ccccc3)c(C)c12 (stereo not given)
    -1, 97, 102, 0
CCOC(=O)c1cc(C(N)=O)c(SC)[nH]c1=O
    -94, 101, 105, -12
CCCCC(=O)NCc1ccccc1Cl
    -9, 101, 103, -3
COc1cc(-c2cc(C(=O)NN=C3CCN(C(C)=O)CC3)c3ccccc3n2)cc(OC)c1OC
    -7, 99, 100, -7
NC1=NC(=O)C(Cc2cccc(Cl)c2)S1 (stereo not given)
    1, 101, 105, -2
Nc1cc(=O)n2c(n1)SCC2CS(=O)(=O)c1ccccc1 (stereo not given)
    -1, 100, 103, 1
CC(=O)Nc1ccc(N/C(C)=C/C(=O)c2cccnc2)cc1
    5, 103, 103, -117
Cc1ccc(SC(C)C(=O)Nc2ccc3c(c2)OCO3)cc1 (stereo not given)
    -5, 100, 104, -14
CCOC(=O)c1c(C)oc2c1c(C=NC1CCCC1)c(O)c1ccccc12
    12, 102, 92, -17
CN(CC(=O)NC1CCCCC1)S(=O)(=O)c1ccccc1
    x, 107, 104, -11
O=S(=O)(NCc1ccccc1)N1CCCCC1
    -7, 104, 101, 9
Cc1nc2cc(-c3ccccc3)nn2c(C)c1CCC(=O)N1CCC2(CC1)OCCO2
    119, 103, 98, -27
CN(C)/C=N/c1nnc(Sc2ccnc3cc(Cl)ccc23)s1
    -8, 95, 93, 5
COc1cc2c(C(=O)Nc3ccc(F)cc3)cn(CC(C)C)c(=O)c2cc1OC
    -9, 104, 107, -1
CCN(C(=O)c1cc2cc(OC)ccc2oc1=O)c1cccc(C)c1
    2, 102, 100, -4
COC(=O)c1ccc(NC(=S)N2CCOCC2)cc1
    x, 100, 99, -2

Assay outcomes: PubChem BioAssay, ICCB-Longwood Screening Facility, Harvard Medical School
